VDR inh: blocks the human vitamin D receptor. P11473. VDR-SRC2-3 peptide fluorescence polarization, 2 h. Potency, µM, for inactives: max response, negative = inhibition, hits mostly inhibitors. 400,000 compounds, 0.93% hits. AID 504847; active = well fitted inhibition curve with a large enough effect; inconclusive = small, poorly fitted or top-dose-only effect, or another doubt; inactive = no such curve, though single readings can be large or run the other way; note: series mostly up to about 120 µM
Target sequence (P11473 whole entry, looked up): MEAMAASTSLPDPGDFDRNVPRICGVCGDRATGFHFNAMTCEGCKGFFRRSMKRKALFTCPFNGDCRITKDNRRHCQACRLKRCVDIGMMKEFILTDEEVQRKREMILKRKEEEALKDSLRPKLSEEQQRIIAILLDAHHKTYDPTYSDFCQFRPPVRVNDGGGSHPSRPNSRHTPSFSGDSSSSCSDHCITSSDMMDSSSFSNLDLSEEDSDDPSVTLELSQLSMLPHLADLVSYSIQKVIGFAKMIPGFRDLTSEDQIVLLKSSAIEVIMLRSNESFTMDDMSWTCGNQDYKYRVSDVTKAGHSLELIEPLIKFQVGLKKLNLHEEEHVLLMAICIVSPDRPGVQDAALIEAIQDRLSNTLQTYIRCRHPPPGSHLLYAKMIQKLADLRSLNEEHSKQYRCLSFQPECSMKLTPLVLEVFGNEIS
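Fluorescence polarization assay measuring small-molecule disruption of VDR binding to the coregulator peptide SRC2-3. Compounds were pin-transferred (23 nl) into the reagent mix and incubated 2 h at room temperature before reading.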
* = called active by the depositor; u = inconclusive; & = joins results of further samples. % is set by controls: 0 for no effect and ±100 for the full control effect; potency is the fitted concentration of half-maximal effect. The list is partial; count on the stated rates, not on these rows.

SMILES	VDR inh
CCCCN1C(=O)CCC(C(=O)O)C1c1ccccc1 (stereo not given)	12%
COc1cc2c(OC(C)=O)c3c(c(-c4ccc5c(c4)OCO5)c2cc1OC)C(=O)OC3	-22%&6%
CN1CCN(NC(=O)Nc2cccc(F)c2)CC1	10%
Cc1c(C(=O)N(C)c2ccc(Cl)cc2)cnn1-c1ccccc1	3%
COc1ccccc1/C=C(/C#N)C(=O)O	-11%
O=C(CSc1nnc(-c2ccc(F)cc2)c2ccccc12)Nc1ccccc1Cl	3%
O=C(Cc1ccc([N+](=O)[O-])cc1)NNC(=O)c1cccs1	-17%
O=C(Cn1nc(Cc2ccncc2)c2ccccc2c1=O)N1CCc2ccccc2C1	u
CC(NC(=O)CSc1ccccc1C(=O)O)C1CC2CCC1C2 (stereo not given)	3%
COc1cccc(/C=C2\SC(=S)N(CCC(=O)NCCc3ccc(O)cc3)C2=O)c1	-16%
CC(=NCC1CCNCC1)C1=C(O)CC(C)(C)CC1=O	-4%
NS(=O)(=O)c1ccc(Nc2ccc([N+](=O)[O-])c3nonc23)cc1	-14%
CCOc1ccccc1CNC(=O)c1ccc2c(c1)sc1nc(-c3cccc(OC)c3)cn12	5%
COc1ccc(NC(=O)Nc2ccccc2OCc2cc(=O)n3ccccc3n2)c(OC)c1	20%
COc1ccc(NC(=O)c2[nH]c(C)c(C(C)=O)c2C)cc1S(=O)(=O)N1CCOCC1	-10%
CCOC(=O)c1ccc(-c2c(-c3ccccc3OC)oc3ccccc23)cc1F	-7%
Cc1ccccc1NC(=O)CSc1nc2ccccc2o1	-4%
Cc1nc2ccccc2cc1C(=O)N/N=C/c1cccs1	-4%
CCN(CC)C(=O)COc1ccc2c3c(c(=O)oc2c1C)CCCC3	11%
O=C(N/N=C\c1ccccn1)C1c2ccccc2Oc2ccccc21	11%
O=C(CC(c1ccccc1)(c1ccccc1)c1ccccc1)N[C@@H](Cc1ccccc1)C(=O)O	-15%
Cc1cc(C)cc(N(C(C)C(=O)N2CCOCC2)S(C)(=O)=O)c1 (stereo not given)	0%
CCOC(=O)C1(O)Oc2cc(OC)cc(OC)c2C(=O)C1c1ccccc1 (stereo not given)	1%
Cc1ccccc1C(=O)NC1(C(F)(F)F)C(=O)Nc2c1c(=O)[nH]c(=O)n2CCc1ccccc1 (stereo not given)	-8%
CCc1nc2nc(C)c(NS(=O)(=O)c3cccs3)c(=O)n2[nH]1	-9%

2 consecutive records already listed, quoted:
SMILES	VDR inh
Cc1ccccc1C(=O)NC1(C(F)(F)F)C(=O)Nc2c1c(=O)[nH]c(=O)n2CCc1ccccc1 (stereo not given)	-8%
CCc1nc2nc(C)c(NS(=O)(=O)c3cccs3)c(=O)n2[nH]1	-9%

Additional records follow.
SMILES	VDR inh
O=C(Cn1ncc2ccccc21)N1CCN(c2cccc(C(F)(F)F)c2)CC1	-1%
Cc1ccc(N2C(=O)c3n[nH]c(C)c3C2c2ccc(Cl)cc2)cc1 (stereo not given)	u
Cc1ccc(N(C)C(=O)C2CCN(S(=O)(=O)c3ccc4c(c3)CCCN4C(=O)C3CCC3)CC2)cc1	1%
COCCN(C(=O)COC(=O)c1cc(C)oc1C)c1c(N)n(Cc2ccccc2)c(=O)[nH]c1=O	0%
CC(C)NC(=O)CSc1nnc(COc2ccccc2Cl)o1	-6%
CC(Oc1cccc(Cl)c1)C(=O)N1CCCN(C)CC1 (stereo not given)	5%
COc1ccc(/C=C(\NC(=O)c2cccs2)C(=O)Nc2cccc3ccccc23)cc1OC	1%
Cc1ccc2c(=O)cc(C(=O)Nc3sc4c(c3C(=O)NCC3CCCO3)CCCC4)oc2c1 (stereo not given)	9%
COc1ccc(C2C(C(C)=O)=C(O)C(=O)N2CCc2ccccc2)c(OC)c1 (stereo not given)	-21%
O=c1[nH]c(SCc2c(F)cccc2Cl)nc2c1CCC2	-7%
CC(CCc1ccccc1)NC(=O)CN1CCc2ccccc2C1 (stereo not given)	-16%
O=C1CC(N2CCN(c3ccc(Cl)cc3)CC2)C(=O)N1c1ccc(F)cc1 (stereo not given)	-7%
COc1cccc(CNC(=O)C2CCN(S(=O)(=O)c3ccc(Br)s3)CC2)c1	-1%
COCCn1c(=O)c(C)nc2cnc(Nc3ccccc3)nc21	2%
CCS(=O)(=O)N1CC(=O)N(c2cc(C)ccc2C)C(C)(C(=O)NC2CCCCC2)C1 (stereo not given)	11%
O=C1OC(c2ccc(O)cc2)(c2ccc(O)cc2)c2ccccc21	-11%&-8%
O=C1C2C(C(=O)N1c1ccccc1)N1CCCN1C2c1ccccc1 (stereo not given)	-2%
O=C(NCc1ccc2c(c1)OCO2)c1ccccc1Cl	-15%
OCCNCCCOc1ccc(Cl)cc1Br	1%
CC(C)CCNC(=O)NC(=O)COc1c(F)c(F)cc(F)c1F	20%
O=C(Nc1cccc(C(=O)Nc2ccc(F)cc2F)c1)c1ccccc1	-2%
CCC(C)(C)NC(=O)C1CCN(c2nc(OC)nc(OC)n2)CC1	7%
CC1(C)CC(=O)C2=C(C1)c1c(ccc3ncccc13)NC2c1cccs1 (stereo not given)	-17%
O=C(Cc1ccc(Cl)cc1)c1ccc(O)cc1	-4%
O=C(O)c1ccc(-n2c(O)c(C=C3N=c4ccccc4=N3)sc2=S)cc1	8%

Further records:
SMILES	VDR inh
COc1ccccc1N(C)S(=O)(=O)c1ccc(Cl)c(C(=O)NC2=NCCS2)c1	-8%
O=C(c1ccc(Cl)c(S(=O)(=O)N2CCOCC2)c1)N1CCN(Cc2ccccc2)CC1	5%
CC(C)c1cc(C(=O)N2CCCC(C(=O)c3ccc4ccccc4c3)C2)on1 (stereo not given)	-2%
Cn1c(-c2ccc(F)cc2)cnc1NCc1ccc(F)cc1	5%
CC(C)Oc1cccc(C(=O)Nc2ncn[nH]2)c1	0%
COc1ccccc1Cc1noc(C(C)(C)NC(=O)c2ccccc2)n1	11%
CC(=O)c1ccc(NC(=O)CSc2c(C(C)C)cnc3c2c(=O)n(C)c(=O)n3C)cc1	2%
Fc1cccc2sc(Nc3nc4cc5c(cc4s3)OCO5)nc12	-13%
CCOC(=O)c1sc(=S)sc1SCc1cccc(C(F)(F)F)c1	17%
CCOc1ccc(S(=O)(=O)NC2CCCC2)cc1C	-7%
COc1ccc(NC(=O)CCCC(=O)OCC(=O)c2cccc(OC)c2)cc1	-6%
CSc1nc(SCC(=O)O)c2c3c(sc2n1)COC(C)(C)C3	-12%
O=C(O)CC/C(=C\c1ccc(N2CCOCC2)c([N+](=O)[O-])c1)c1nc2ccccc2s1	-9%
CC(C(=O)NC(C)(C)C)N(C(=O)CS(=O)CC(=O)Nc1ccc(F)cc1)C1CCCC1 (stereo not given)	-12%
Cc1cc(NS(=O)(=O)c2ccc(NC(=O)CCCOc3ccc(Cl)cc3)cc2)no1	-12%
CCN(CC)CCNC(=O)c1ccc(NC(=O)CC(NC(=O)c2ccccc2Cl)c2ccccc2)cc1 (stereo not given)	-9%
CCSc1nnc(NC(=O)CSc2ncccn2)s1	-12%
CC(C)C[C@@H](NC(=O)C1CCC(CNC(=O)[C@H](Cc2ccccc2)NC(=O)OC(C)(C)C)CC1)C(=O)O (stereo not given in full)	-4%
CC1CCCC(NC(=O)CSc2nnnn2C)C1C (stereo not given)	9%
Cc1cc(C)c(S(=O)(=O)N2CCOC2CNC(=O)C(=O)NCCCN2CCCC2=O)c(C)c1 (stereo not given)	-7%
CCCCCc1ccc(-c2ccc(C(=O)O)cc2)nc1	9%
COc1ccc(Cl)cc1NC(=O)CN(C)CC(=O)Nc1ccc(S(N)(=O)=O)cc1	-6%
O=C(C[n+]1cccc(C(=O)N/N=C/c2cccc([N+](=O)[O-])c2)c1)c1ccccc1	1%
COC(=O)C1(C)CN(S(=O)(=O)c2ccc(C)cc2)c2cc(OC)ccc2C1=O (stereo not given)	-18%
CCCCS(=O)(=O)Nc1ccc(C)cn1	u

4 of the compounds above, bar-delimited.
compound | VDR inh
Cc1ccccc1NC(=O)CSc1nc2ccccc2o1 | -4%
Cc1nc2ccccc2cc1C(=O)N/N=C/c1cccs1 | -4%
CCN(CC)C(=O)COc1ccc2c3c(c(=O)oc2c1C)CCCC3 | 11%
O=C(N/N=C\c1ccccn1)C1c2ccccc2Oc2ccccc21 | 11%

More entries follow.
SMILES	VDR inh
COC(=O)C(O)(CC(=O)Nc1ccc(OC(F)(F)F)cc1)C(F)(F)F (stereo not given)	3%
Cc1cc(Nc2ccccc2)n(-c2ccc(C(=O)O)cc2)n1	11%
COc1cc(CNCc2ccccn2)ccc1OCC(N)=O	1%
Cc1cc(C)c(S(=O)(=O)N2CCOC2CNC(=O)C(=O)NCCCN2CCOCC2)c(C)c1 (stereo not given)	-1%
CCOC(=O)c1sc(Nc2ccccc2Cl)nc1C	11%
Cc1cn(CCOc2ccc(Cl)cc2)c(=O)[nH]c1=O	-21%
Cc1ccc2c(c1)N(C(=O)CCC(=O)NCc1ccccc1Cl)CC(C)O2 (stereo not given)	-3%
CCc1ccc(CN2C(=O)c3ccccc3C2C(=O)NCC2CCCO2)cc1 (stereo not given)	0%
O=S(=O)(Nc1ccc(-c2ccc3nncn3n2)cc1)c1cccc(F)c1	-12%
O=C(c1ccc(F)cc1)N1CCN(C2CC3CCC2C3)CC1 (stereo not given)	0%
CCc1ccc(S(=O)(=O)NCc2cn3c(C)csc3n2)s1	-17%
Cc1cc(=O)[nH]c(SCC(=O)Nc2ccc(S(N)(=O)=O)cc2)n1	5%
O=C(NCc1ccco1)C(c1ccco1)N(C(=O)Cn1nnc2ccccc21)c1ccc2c(c1)CCC2 (stereo not given)	1%
CC(NC(=O)C1CCC1)c1ccccc1 (stereo not given)	-1%
CCCCn1c(N)c(N(CCOC)C(=O)c2cccc(OCc3ccccc3)c2)c(=O)[nH]c1=O	-21%
COCCN(C(=O)CN1CCc2ccccc2C1)c1c(N)n(Cc2ccccc2)c(=O)[nH]c1=O	-14%
Cc1ccc(C(=O)NNC(=O)/C=C\C(=O)O)cc1	7%
CCOc1ncccc1C(=O)OCC(=O)Nc1ccc(C)c(S(=O)(=O)N2CCOCC2)c1	8%
O=C(N/N=C/c1ccc(Cl)cc1Cl)c1ccc2nc[nH]c2c1	-3%
CC(C)C[C@@H](CN)NC(=O)c1nc[nH]c1C(=O)N[C@@H](C)C(=O)CNC[C@H](CC(C)C)NC(=O)c1nc[nH]c1C(=O)N[C@@H](Cc1ccccc1)C(=O)O	-27%
CC(NC(=O)C1CCN(C(=O)[C@@H]2Cc3ccccc3CN2)CC1)c1ccccc1 (stereo not given in full)	-24%
Cn1c(CCC(=O)Nc2ccc(F)cc2)nc2cc(S(=O)(=O)N3CCOCC3)ccc21	-3%
Cc1ccc2oc3c(c(=O)c2c1)C(c1cccc(O)c1)N(CCCN1CCOCC1)C3=O (stereo not given)	29%
CC(OC(=O)CCC(=O)c1cccs1)C(=O)Nc1ccc(Cl)cn1 (stereo not given)	-21%
O=C(COC(=O)CNC(=O)c1ccc(Cl)cc1)Nc1ncc(C(F)(F)F)cc1Cl	10%

Reformatted field by field: entries from further up
Molecule: Cc1cc(C)c(S(=O)(=O)N2CCOC2CNC(=O)C(=O)NCCCN2CCCC2=O)c(C)c1 (stereo not given)
- VDR inh: -7%

Molecule: CC(=NCC1CCNCC1)C1=C(O)CC(C)(C)CC1=O
- VDR inh: -4%

Following part
SMILES	VDR inh
Cc1nonc1OCC(C)(COc1nonc1C)NC(=O)c1ccccc1	13%
COCCN(C(=O)COC(=O)CCc1ccccc1OC)c1c(N)n(Cc2ccccc2)c(=O)[nH]c1=O	-18%
O=C(Nn1cnnc1)c1ccc(F)cc1	-2%
CC(=O)Nc1ccc(NC(=O)C2CCN(c3c(NC(C)=O)c(C)nn3-c3ccccc3)CC2)cc1	8%
COc1ccccc1NC(=O)COc1cccc2c1CCNC2=O	-8%
CCn1nc(C(C)C(=O)O)c2ccccc2c1=O (stereo not given)	6%
CCN1CCN(CCCNC(=O)CNC(=O)c2nn(-c3ccc(OC)cc3)c(=O)c3ccccc23)CC1	0%
O=C1Nc2ccccc2C1=Nc1ccc2[nH]c3ccccc3c2c1	-17%
CC(C(=O)N1CCOCC1)N1c2cccc3cccc(c23)S1(=O)=O (stereo not given)	-12%
CN(C)c1cc2c(c(N(C)C)c1)C(=O)c1ccccc1C2=O	3%
CN(C(=O)c1cccs1)C1(C)CCS(=O)(=O)C1 (stereo not given)	0%
Brc1ccc(-c2cn3c(n2)CCc2ccc4cccnc4c2-3)cc1	15%
CSCC[C@H](NC(=O)COc1cc2c(c3oc(=O)c(C)c(C)c13)CCC(C)(C)O2)C(=O)O	-21%
COCCCNC(=S)NNC(=O)c1ccoc1C	3%
CC(=O)N1c2ccc(S(=O)(=O)N3CCC(C(=O)N4CCN(c5cc(Cl)ccc5C)CC4)CC3)cc2CC1C (stereo not given)	-1%
O=C(COc1ccccc1N1C(=O)c2ccccc2C1=O)c1ccc(Cl)cc1	8%
Cc1nc2ccc(NC(=O)Cc3ccccc3F)cc2s1	u
COc1ccc(NC(=O)c2cccnc2N2CCCC2)cc1	-9%
COc1ccc(C(=O)N2CCC3(CCCN(c4ccc(-c5ccccc5)cc4)C3)CC2)cc1	u
CCc1ccccc1NC(=O)N1CCCn2nc(C)cc21	11%
CC1=CC(C)(C)NC(=S)N1c1cc(C)cc(C)c1	-9%
FC(F)(F)c1ccc2c(c1)NCC1CCCN21 (stereo not given)	-1%
CCN(CC)S(=O)(=O)c1ccc(/C=C/C(=O)Nc2ccc(N3CCOCC3)cc2)cc1	-7%

Ordered by the number under VDR inh (highest first): some entries from above
| compound | VDR inh |
| --- | --- |
| Cc1nonc1OCC(C)(COc1nonc1C)NC(=O)c1ccccc1 | 13% |
| CC(=O)Nc1ccc(NC(=O)C2CCN(c3c(NC(C)=O)c(C)nn3-c3ccccc3)CC2)cc1 | 8% |
| COCCCNC(=S)NNC(=O)c1ccoc1C | 3% |
| FC(F)(F)c1ccc2c(c1)NCC1CCCN21 (stereo not given) | -1% |
| O=C(Nn1cnnc1)c1ccc(F)cc1 | -2% |
| CC(C(=O)N1CCOCC1)N1c2cccc3cccc(c23)S1(=O)=O (stereo not given) | -12% |

Screens (PubChem)
